TSHR ag – qHTS Assay for Agonists of the Thyroid Stimulating Hormone Receptor | HEK293-CNG-TSHR cells (CNG channel as cAMP sensor), membrane potential dye, cAMP | Thyrotropin receptor (Homo sapiens), P16473 | 73,000 compounds, 0.48% hits | Potency, µM (top dose mostly 57.1 µM), without a hit: at the top dose activation, hits mostly activators; active = well fitted activation curve of enough size with the parental cells flat; inconclusive = any curve in the parental cells; inactive = parental cells flat and receptor cells flat or falling; also: potency is read from the fitted curve at half-maximal effect; % of control where 0% means no effect; weak receptor curves with flat parental cells got no call and are not listed
Target sequence (P16473 whole entry, looked up): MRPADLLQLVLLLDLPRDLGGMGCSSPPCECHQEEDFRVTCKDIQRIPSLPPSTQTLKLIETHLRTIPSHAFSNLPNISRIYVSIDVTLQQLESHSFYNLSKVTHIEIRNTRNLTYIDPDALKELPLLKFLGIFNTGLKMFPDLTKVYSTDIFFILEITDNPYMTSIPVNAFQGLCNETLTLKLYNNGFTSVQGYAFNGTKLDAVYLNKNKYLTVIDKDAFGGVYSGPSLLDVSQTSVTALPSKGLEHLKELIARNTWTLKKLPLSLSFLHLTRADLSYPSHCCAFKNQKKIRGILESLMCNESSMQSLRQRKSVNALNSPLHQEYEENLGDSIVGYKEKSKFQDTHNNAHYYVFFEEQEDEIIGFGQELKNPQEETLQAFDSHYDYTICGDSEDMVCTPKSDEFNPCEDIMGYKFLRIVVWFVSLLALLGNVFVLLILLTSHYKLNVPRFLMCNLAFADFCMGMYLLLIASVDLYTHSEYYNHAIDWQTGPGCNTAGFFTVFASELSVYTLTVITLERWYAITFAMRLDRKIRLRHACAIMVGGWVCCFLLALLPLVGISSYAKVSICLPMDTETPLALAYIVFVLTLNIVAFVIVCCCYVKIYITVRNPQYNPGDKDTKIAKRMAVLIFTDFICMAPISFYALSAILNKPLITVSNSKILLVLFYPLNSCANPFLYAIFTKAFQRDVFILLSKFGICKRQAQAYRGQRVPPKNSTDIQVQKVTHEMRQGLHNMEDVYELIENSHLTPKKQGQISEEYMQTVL
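HEK 293 cells stably expressing TSHR and a modified CNG channel, with CNG-only parental cells as counterscreen, were preloaded 60 min at room temperature with membrane potential dye containing 100 uM RO 20-1724. Compound exposure was 30 min, and depolarization was read as fluorescence at 590 nm.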
A488 fluor – qHTS Assay for Spectroscopic Profiling in A488 Spectral Region; compound autofluorescence, A488 spectral region, dye equivalency; active compounds read high; max dye equivalency, M; 59,000 compounds, 0.1% hits; active = above 10 nM dye equivalent; inconclusive = 1 to 10 nM; inactive = 1 nM or less; about half of its hits are not listed in these tables;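 also: highest value over a series up to 38 µM; compound alone in buffer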
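Read-out: relative fluorescence at 480/540 nm, expressed as Alexa 488 dye-equivalent concentration from a six-point A488 standard included per plate. Conditions: 100 mM Tris, pH 8.0; 15 min incubation, room temperature.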
AID923 – qHTS Assay for Allosteric/Competitive Inhibitors of Caspase-1: Spectroscopic Profiling in AFC Spectral Region; 75,000 compounds, 1.1% hits; compound fluorescence, AFC spectral region (405/520 nm); almost no hit is shown here; Potency, µM (titrated, usually from 57.5 µM), for inactives: top-dose fluorescence increase, hits mostly activators; AID 923, 2007; active = well fitted activation curve with a large enough effect; inconclusive = small, poorly fitted or top-dose-only effect;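 also: potency is read from the fitted curve at half-maximal effect; 0% is about no effect; scaled to a free AFC standard on each plate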
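Titrations up to 57 uM read every 20 sec for 3 min (405/520 nm) with 50 nM caspase 1 and 5 uM Ac-WEHD-AFC, pH 7.5 HEPES buffer. Fluorescence-vs-time intercept gave baseline, scaled against on-plate AFC standard.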
A647 fluor – qHTS Assay for Spectroscopic Profiling in A647 Spectral Region; Compound fluorescence, A647 channel (570/671 nm), Tris buffer; max dye-equivalent concentration, M; 59,000 tested, under 10 active; active means above 1 µM dye equivalent; inconclusive means 0.1 to 1 µM; inactive means 0.1 µM or less;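 also: values scaled relative to a standard on each plate; highest value over a series up to 38 µM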
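Buffer was dispensed, compounds and Alexa 647 standards were pin-transferred, and plates sat 15 min at room temperature. Intensity at 570/671 nm was then converted to dye-equivalent concentration using the plate's A647 standard curve.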
Resorufin autofl – qHTS Assay for Spectroscopic Profiling in Resorufin Spectral Region; Compound fluorescence, resorufin region 547/598 nm, buffer; active compounds read high; max dye-equivalent concentration, M; 59,000 compounds, 0.04% hits; AID 588, 2007; active = above 10 nM dye equivalent; inconclusive = 1 to 10 nM; inactive = 1 nM or less; a few of its hits are not listed in these tables; also: highest value over a series up to 38 µM
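Intrinsic fluorescence profiled in the resorufin window (ex 547 nm, em 598 nm) after 15 min at room temperature in pH 8.0 Tris buffer (100 mM); responses normalized against a six-point resorufin standard series as dye-equivalent concentration.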
* marks the source's active call; other numbers are inactive results; i = inactive; ? = inconclusive; . = no result given; [ ] = another dose, or the depositor's remark. This is a subset; the hit share may differ from the screen's.

Start of the data: the first 3 records (preview)
SMILES	TSHR ag	A488 fluor	AID923	A647 fluor	Resorufin autofl
CC(=O)Oc1ccccc1C(=O)Oc1ccccc1C(=O)O	-13%[25.6 µM]	i	-1.9%	2e-08	i
Cc1c(C(=O)N2CCN(c3ccccc3)CC2)sc2ncnc(N3CCN(c4ccccc4)CC3)c12	2%	i	0.2%	8.7e-09	i
Cc1ccc(S(=O)(=O)c2c(N)n(/N=C/c3ccco3)c3nc4ccccc4nc23)cc1C	-4%	i	2.0%	1e-09	i

Main list (from the top)
SMILES	TSHR ag	A488 fluor	AID923	A647 fluor	Resorufin autofl
CC(=O)Oc1ccccc1C(=O)Oc1ccccc1C(=O)O	-13%[25.6 µM]	i	-1.9%	2e-08	i
Cc1c(C(=O)N2CCN(c3ccccc3)CC2)sc2ncnc(N3CCN(c4ccccc4)CC3)c12	2%	i	0.2%	8.7e-09	i
Cc1ccc(S(=O)(=O)c2c(N)n(/N=C/c3ccco3)c3nc4ccccc4nc23)cc1C	-4%	i	2.0%	1e-09	i
CC(=O)c1nc2ccccc2n1S(=O)(=O)c1ccc(Cl)cc1	.	i	0.0%	4.4e-09	i
Cc1ccc(N2CCN(S(=O)(=O)c3ccc(F)cc3)CC2)c(C)c1	25%	.	0.9%	.	.
Cc1cccc(OCC(O)Cn2c(-n3nc(C)cc3C)nc3c2c(=O)[nH]c(=O)n3C)c1 (stereo not drawn)	7%	i	-1.4%	8.8e-09	i
O=C(CSc1nc2ccccc2o1)NCCOc1ccccc1	26%	i	-1.0%	3.1e-08	i
CCN(CCNS(=O)(=O)c1ccc2[nH]c(=O)sc2c1)c1ccccc1	-9%	.	2.5%	.	.
C[C@@]1(O)CCOC(=O)C1	-4%[25.6 µM]	i	-1.5%[25.7 µM]	4.5e-08	i
Cc1ccccc1OCC(=O)NCCN1CCCC1	2%	i	-0.2%	1.5e-09	i
Cc1oc(/N=C/c2ccccc2O)c(C#N)c1C	-1%	.	4.4%	.	.
CCn1c(=O)cc(SCC(=O)N2CCC(C)CC2)c2ccccc21	?	i	-0.6%	3.1e-09	i
CCn1c(=O)cc(NC2=NCC(C)CN2c2cccc(Cl)c2)n(C)c1=O (stereo not drawn)	-3%	i	0.1%	1e-09	i
CCn1c(COc2ccc(Cl)cc2)nnc1SCc1ccc(C#N)cc1	11%	i	0.6%	6.9e-09	i
Cn1c(=O)c2c(SCC(=O)N3CCN(c4ccccc4)CC3)nc(C3CC3)nc2n(C)c1=O	4%	.	2.6%	.	.
Cc1c(NC(=O)C2CCCCN2S(=O)(=O)c2ccc(Cl)cc2)c(=O)n(-c2ccccc2)n1C (stereo not drawn)	-6%	.	5.3%	.	.
CCC(C)(C)NC(=O)C(c1ccc(F)cc1)N(Cc1ccco1)C(=O)CCC(=O)Nc1ccccn1 (stereo not drawn)	?	i	-2.7%	2.9e-08	i
Cn1c[n+](C)cc1/C=N/O	.	i	.	1.1e-08	i
c1cncc(-c2nccc(-n3ccnc3)n2)c1	3%	i	-0.2%	1e-09	i
O=C(Nc1cccnc1)c1c(O)c2cccc3c2n(c1=O)CC3	3%	i	1.7%	2e-08	i
c1ccc(-c2nnc3sc(-c4cc5ccccc5o4)nn23)cc1	?	i	2.8%	1e-09	i
O=C(NCc1ccccn1)C1CCN(S(=O)(=O)c2cnc[nH]2)CC1	0%	i	0.9%	6.5e-09	i
COC(=O)C1=C(N)Oc2cc(C)n(CCCn3ccnc3)c(=O)c2C1c1cccc(Cl)c1 (stereo not drawn)	12%	i	-0.1%	2e-09	i
NC(=O)CSc1nnc(-c2ccncc2)n1CCc1ccccc1	-3%	i	0.2%	3.1e-08	i

Record cards (already shown):
Shown for CCC(C)(C)NC(=O)C(c1ccc(F)cc1)N(Cc1ccco1)C(=O)CCC(=O)Nc1ccccn1 (stereo not drawn) → TSHR ag: ?; A488 fluor: i; AID923: -2.7%; A647 fluor: 2.9e-08; Resorufin autofl: i
Shown for c1ccc(-c2nnc3sc(-c4cc5ccccc5o4)nn23)cc1 → TSHR ag: ?; A488 fluor: i; AID923: 2.8%; A647 fluor: 1e-09; Resorufin autofl: i

Next part
SMILES	TSHR ag	A488 fluor	AID923	A647 fluor	Resorufin autofl
O=C(Nc1ccc2c(c1)OCCO2)C1CCCN1S(=O)(=O)c1ccc(Cl)cc1 (stereo not drawn)	10%	i	0.2%	8.4e-09	i
CN1CCN(c2cc(-c3ccc(N(C)C)cc3)ncn2)CC1	-1%	i	3.1%	1e-09	i
Cc1ccc(Cn2nnc3c(=O)n(CC(=O)N4CCN(c5ccccc5)CC4)cnc32)cc1	20%	i	-0.7%	3.2e-08	i
COc1cc2cc(CN(CCN3CCCC3)C(=O)Nc3ccc(F)cc3)c(=O)[nH]c2cc1OC	-6%	i	9.9%	2.2e-08	i
CC(=O)c1c(C)[nH]c(C(=O)OCC(=O)Nc2ncc(Cl)c(C)c2Cl)c1C	-2%	i	0.8%	2.8e-09	i
COc1cccc(NC(=O)N2CCCC(C(=O)Nc3ccccc3OC)C2)c1 (stereo not drawn)	.	i	-1.4%	1.8e-08	i
O=C(OCC1COc2ccccc2O1)c1ccccc1F (stereo not drawn)	8%	i	0.1%	1.1e-08	i
Cc1c(C#N)c2ncnc(-c3ccccc3)c2n1-c1ccccc1	-1%	.	2.5%	.	.
COc1ccc(OCCN2CCN(C3CC(=O)N(CCC(C)C)C3=O)CC2)cc1 (stereo not drawn)	?	i	0.4%	1e-09	i
COC(=O)c1ccc(NC(=O)CCn2c(=O)oc3ccccc32)cc1	-1%	i	-0.4%	9e-09	i
Cc1cccc(C)c1NC(=O)c1cc(S(=O)(=O)N2CCOCC2)ccc1F	.	i	-0.5%	4.5e-09	i
CCC(=O)Nc1ccc(Br)c(Cl)c1	-8%	i	-0.1%	1e-09	i
CCOC(=O)C(NC(=O)c1ccc(F)cc1)(Nc1nnc(C)s1)C(F)(F)F (stereo not drawn)	0%[11.4 µM]	i	1.6%	3.4e-08	i
Cc1ccc(C(C)C)c(OCC(=O)Nc2ccc(N3CCN(S(C)(=O)=O)CC3)cc2)c1	-38%[inhibitor]	i	0.1%	4.4e-09	i
CCOC(=O)CSc1ccc2nnc(-c3ccccc3)n2n1	11%	.	-2.4%	.	.
CC(C)(C)OC(=O)N[C@@H](Cc1ccccc1)c1nnc(S(=O)(=O)Cc2cccc(F)c2)o1	2%	i	0.2%	1e-09	i
COc1ccc(OCc2nnc(SCC(=O)NCc3ccco3)o2)cc1	0%	i	1.5%	4.4e-09	i
CC(C)CNc1nc(Oc2ccc(=O)n(-c3ccccc3)n2)nc(N2CCOCC2)n1	30%	i	-0.8%	2.2e-08	i
Cc1ccc(-c2nc(CS(=O)CC(=O)NCCC(C)C)c(C)o2)cc1 (stereo not drawn)	16%	.	1.6%	.	.
Cc1ccc(C23CC4CC(CC(NC(=O)N5CCN(C)CC5)(C4)C2)C3)cc1	10%	i	0.0%	5.8e-09	i
Cc1cccc(-c2nnc(SCC#N)n2-c2cccc(Cl)c2)c1	?	i	-0.2%	1e-09	i
COC(=O)c1[nH]c2cccc(OC)c2c1NC(=O)CCN1CCN(c2cccc(Cl)c2)CC1	-8%	i	-1.6%	6.7e-09	i
CC(C)Oc1ccc(NC(=O)Oc2ccccc2)cc1	9%[11.4 µM]	.	-1.0%	.	.
CN(C)c1ccc(C=Nc2ccccc2C(N)=O)cc1	2%	.	0.1%	.	.
CCC(C)O (stereo not drawn)	?	.	-3.4%	.	.
O=C(OCC(=O)c1cccs1)C1=COCCO1	-11%	i	-0.4%	5.5e-09	i
CC1C=Cc2ccccc2N1C(=O)c1ccccc1 (stereo not drawn)	3%[11.4 µM]	i	-0.5%	2.3e-09	i
O=C(NCCC1=CCCCC1)c1ccc(Cl)c(S(=O)(=O)N2CCOCC2)c1	27%	i	0.6%	1e-09	i
COc1ccccc1CNc1ncncc1-c1ccccc1OC	?	i	-0.3%	1.2e-08	i
CCCc1nc(NC(C)=O)c(C#N)c(-c2ccco2)c1CC	23%	i	-1.9%	1e-09	i
N#Cc1c(-c2ccccc2)nc(N2CCOCC2)[nH]c1=O	6%	i	-0.5%	2.6e-08	i
CC(Cc1ccccc1)C(=O)N(C)Cc1ccccc1 (stereo not drawn)	-2%	.	-0.3%	.	.
O=C(c1cccs1)n1cc(C(=S)N2CCOCC2)c2ccccc21	?	.	0.0%	.	.
Cc1noc(C)c1C(=O)Nc1sc2c(c1C(N)=O)CCC2	-16%	i	1.3%	2.8e-08	i
Cc1c(C(=O)OCCN2CCCCC2)oc2ccccc12	.	i	0.6%	3e-09	i
CC(=O)NC(NC(C)=O)c1ccc(N(C)C)cc1	-2%	.	1.8%	.	.
CCOc1ccccc1NC(=O)C1CCN(S(=O)(=O)c2cccc3cccnc23)CC1	?	.	0.1%	.	.
COc1cc(S(=O)(=O)N2CCN(C)CC2)c(OC)cc1Br	.	i	.	1e-09	i
COc1cc(C2Nc3cccc4cccc(c34)N2)cc(OC)c1O	-10%	i	1.3%	2.2e-08	i
COC(=O)CNC(=O)C(Cc1c[nH]c2ccccc12)NC(=O)OC(C)(C)C (stereo not drawn)	-2%	i	-0.4%	4.4e-09	i
Cc1nn(-c2ccccc2)c(Cl)c1C1C(C#N)=C(N)Oc2n[nH]c(C)c21 (stereo not drawn)	2%	i	-0.6%	1.3e-08	i
CCn1cc(C(=O)NC2CCCCCC2)c(=O)c2cc(S(=O)(=O)N3CCCCC3)ccc21	-4%	.	-2.3%	.	.
COc1ccc(N2CCN(C(c3cc4ccc(C)cc4[nH]c3=O)c3nnnn3C3CCCC3)CC2)cc1 (stereo not drawn)	-2%	i	1.7%	4.6e-08	i
CCn1c(SCC(=O)Nc2ccc3c(c2)OCCO3)nnc1-c1ccco1	10%	i	-0.2%	1e-09	i
Cc1ccc(SCCCn2cncn2)cc1	7%	i	0.5%	3.2e-08	i
O=C(CSc1nnc(-c2ccc(O)cc2)n1Cc1ccco1)c1cccs1	10µM*	i	-3.2%	5e-08	i
CC1CCCC(C)N1C(=O)COc1ccc(-c2nnco2)cc1 (stereo not drawn)	1%	i	-0.5%	1e-09	i
CCOc1ccc(C(=O)c2cccs2)cc1	?	i	-1.0%	1e-09	i
COc1ccc(CCNC(=O)c2ccc(=O)[nH]n2)cc1OC	.	i	.	4.6e-09	i
COc1ccc(CN2CCN(c3ccccn3)CC2)cc1OCc1ccccc1	?	i	-1.7%	2e-08	i
COC(=O)[C@@]1(Cc2ccccc2)[C@H]2c3cc(C(=O)N(C)C)n(CCF)c3C[C@H]2CN1C(=O)c1ccccc1	?	.	2.2%	.	.
CC(C)(C)n1nnnc1C(c1cccs1)N1CCN(Cc2ccccc2)CC1 (stereo not drawn)	?	i	1.2%	2.6e-09	i
Nc1nonc1-c1noc(-c2ccc(Br)o2)n1	4%[11.4 µM]	i	-0.4%	1.8e-08	i
O=C(c1ccc2c(c1)OCCO2)N1CCCCC1	7%	i	0.1%	9.9e-09	i
COc1ccccc1CNc1ncncc1-c1ccccc1Cl	?	i	-1.3%	2.8e-08	i
Cc1cc(C(F)(F)F)nc(SCC(=O)NC2=NC(=O)C(C)S2)n1 (stereo not drawn)	0%	i	-0.9%	3.9e-08	i
COc1ccc(Cc2nc(-c3ccc(Br)cc3)no2)cc1	26%	.	2.4%	.	.
Cc1cc(C)cc(NC(=O)c2cc(S(=O)(=O)NCc3ccco3)ccc2F)c1	4%	i	0.1%	1e-09	i
COc1cccc2sc(N(C)c3ccccc3)nc12	14%	i	0.0%	3.9e-08	i

Source: PubChem (National Center for Advancing Translational Sciences (NCATS))
